DUX4 txn inh – blocks DUX4-driven transcriptional activation; hit rate 0.8% among 37,000; AID 1224904; activity change, negative = inhibition, % (concentration not given with the values); 293T-iDUX4 ZSCAN4-Gaussia luciferase reporter, 24 h; stronger effect = lower value;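 active means -10% or lower and over 25 points stronger than a control reporter; inconclusive means -10% or lower with a smaller gap; inactive means above -10%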;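 further: 0% = median of neutral control wells and -100% = median of positive control wells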
DUX4 txn inh difference – further read-out of DUX4 txn inh, marked with its call; Gaussia minus Italica difference, %; measured here: selective DUX4 reporter inhibition;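 worked out from the two reporters; negative = selective loss of the DUX4 reporter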
DUX4 txn inh control – also measured in DUX4 txn inh; calls as there; activity change, negative = inhibition, %; measured here: Italica tet-on control reporter;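 0 = neutral control and -100 = positive control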
* marks the source's active call; other numbers are inactive results; ? = inconclusive; . = not tested or not shown.

SMILES	DUX4 txn inh	DUX4 txn inh difference	DUX4 txn inh control
O=C(O)[C@@H]1[C@@H](CO)[C@@H]2Cn3c(ccc(-c4ccccc4F)c3=O)[C@@H]2N1Cc1ccccc1	1	-5	6.2
COc1ccc(CN2C[C@@H](O)COC[C@H]3O[C@H](CC(=O)N4CCc5ccccc5C4)CC[C@@H]32)cc1	-10	-1	-8.5
COc1cccc(S(=O)(=O)Nc2ccc3c(c2)C(=O)N(C)[C@H]2CC[C@H](CC(=O)Nc4cc(F)ccc4F)O[C@@H]2CO3)c1	-6	4	-10
Cc1noc(C)c1NC(=O)N(C)C[C@H]1OCc2cnnn2CCCC(=O)N([C@@H](C)CO)C[C@H]1C	1	-5	5.6
C[C@@H]1CN([C@H](C)CO)C(=O)CCCn2nncc2CO[C@@H]1CN(C)S(C)(=O)=O	-2	-1	-1.6
C/C=C/c1cnc2c(c1)C(=O)N([C@@H](C)CO)C[C@H](C)[C@@H](CN(C)C(=O)NC1CCCC1)O2	5	2	2.4
O=C(Nc1ccccc1)N1C[C@@H]2[C@H](c3ccccc31)[C@H](CO)N2CC1CCCC1	1	5	-4.0
O=C(C[C@@H]1C=C[C@H](NC(=O)C2CCC2)[C@@H](CO)O1)NCc1ccccc1Cl	-3	-4	0.7
CNC[C@H]1Oc2c(NC(=O)C3CCOCC3)cccc2C(=O)N([C@@H](C)CO)C[C@@H]1C	-2	1	-3.6
N#C[C@@H]1[C@H](c2ccc(C3=CCCC3)cc2)[C@H](CO)N1C(=O)C1CC1	1	5	-3.6
COCCNC(=O)[C@H]1[C@H](CO)[C@H]2Cn3c(ccc(-c4ccccc4F)c3=O)[C@H]2N1C(=O)C1CC1	18	15	2.3
C/C=C/c1ccccc1[C@H]1[C@@H](CO)N(S(=O)(=O)c2cccc(F)c2)[C@H]1C#N	0	-8	8.0
C[C@@H]1CCCCO[C@@H](CN(C)C(=O)Cc2ccccc2)[C@H](C)CN([C@@H](C)CO)C(=O)c2cc(NC(=O)Nc3ccc(C(F)(F)F)cc3)ccc2O1	-4	-3	-0.9
C[C@@H]1CN([C@@H](C)CO)C(=O)c2cc(N(C)C)ccc2O[C@@H]1CN(C)C(=O)Nc1cccc2ccccc12	-3	-2	-1.2
COc1ccccc1-c1ccc2c(c1)[C@@H]1[C@@H](CCN1S(=O)(=O)c1cn(C)cn1)[C@@H](CO)N2	15	15	-0.2
C/C=C/c1ccc2c(c1)O[C@@H](CN(C)C(=O)NCCC)[C@H](C)CN([C@H](C)CO)S2(=O)=O	0	1	-1.6
C[C@H]1CN([C@@H](C)CO)C(=O)CCCn2nncc2CO[C@@H]1CN(C)Cc1ccc2cccnc2c1	8	7	0.4
O=C(C1CCOCC1)N1C[C@H]2[C@@H](c3ccccc31)[C@@H](CO)N2Cc1ccc(Cl)cc1	0	-3	3.2
COCCNC(=O)C[C@@H]1C[C@@H]2c3cc(N(C)C)ccc3O[C@@H]2[C@H](CO)O1	3	1	1.7
COc1cccc(-c2ccc([C@H]3[C@H]4CN(C(=O)c5ccc6c(c5)OCO6)CCCCN4[C@H]3CO)cc2)c1	?	.	.
COc1ccccc1C(=O)N1C[C@H]2[C@@H](c3ccccc31)[C@@H](CO)N2C(=O)C1CCCCC1	3	6	-3.5
Cc1ccccc1-c1ccc([C@H]2[C@@H](CO)N3C(=O)CN(C(=O)c4cccnc4)C[C@H]23)cc1	8	14	-6.3
COCC(=O)N1CC[C@@H]2[C@@H](CO)Nc3ccc(C#Cc4ccc(F)cc4)cc3[C@@H]21	15	14	0.8
CCCNC(=O)N1CC2(CN(C)C2)c2c([nH]c3cc(OC)ccc23)[C@@H]1CO	16	10	5.6
O=C(C[C@H]1C[C@@H]2c3cc(NC(=O)Nc4ccccc4F)ccc3O[C@@H]2[C@H](CO)O1)NCc1ccncc1	6	1	4.9
C[C@H](CO)N1C[C@H](C)[C@@H](CN(C)Cc2ccc(C(=O)Nc3ccccc3N)cc2)OCc2cnnn2CCCC1=O	-20*	-37*	17*
C/C=C/c1ccc([C@H]2[C@@H](CO)N(CC3CCCCC3)[C@H]2CNC(C)C)cc1	-3	-1	-2.1
CO[C@H]1CC[C@H]2CCN(C)C(=O)[C@H](C)N(C)C(=O)c3cccc(C#N)c3OC[C@H]1O2	?	.	.
O=C(C[C@@H]1CC[C@@H](NC(=O)Nc2ccccc2F)[C@H](CO)O1)NCc1ccc(Cl)cc1	5	6	-1.2
CO[C@@H]1CC[C@H]2CCN(C)C(=O)[C@H](C)CN(C)C(=O)c3cc(C#N)ccc3OC[C@H]1O2	-2	-7	5.1
O=C(Nc1ccc(Cl)c(Cl)c1)N[C@H]1CC[C@@H](CCNC(=O)c2ccc(F)cc2)O[C@H]1CO	-5	3	-8.4
O=C(C[C@H]1CC[C@@H]2NC[C@@H](O)COC[C@H]2O1)NCCN1CCCCC1	6	1	5.6
C/C=C/c1ccc([C@H]2[C@@H](CO)N3C(=O)CN(S(=O)(=O)c4ccccc4)C[C@H]23)cc1	10	5	4.8
C[C@H]1CN([C@@H](C)CO)C(=O)c2ccccc2-c2ccccc2CO[C@H]1CN(C)S(C)(=O)=O	5	1	4.1
Cc1ccccc1-c1ccc([C@H]2[C@H]3CN(C(=O)c4cccnc4)CCCCN3[C@H]2CO)cc1	?	.	.
COc1ccccc1NC(=O)N[C@H]1C=C[C@H](CC(=O)N[C@@H](C)c2ccccc2)O[C@@H]1CO	-2	-4	2.0
CCCNC(=O)C[C@@H]1CC[C@H]2[C@@H](COC[C@H](O)CN2C(=O)Nc2c(C)noc2C)O1	9	4	4.6
COc1ccc2c3c(n(C)c2c1)[C@H](CO)N(CC1CC1)CC31CCN(C(=O)c2ccc(F)cc2)CC1	?	.	.
COCC(=O)N1C[C@@H]2[C@H](c3ccccc31)[C@H](CO)N2C(=O)C1CCOCC1	0	2	-2.7
CO[C@H]1CN(C)C(=O)c2ccc(NC(=O)Nc3ccc(Cl)cc3)cc2OC[C@H](C)N(C(=O)Nc2c(C)noc2C)C[C@@H]1C	-6	-2	-4.0
CNC[C@H]1[C@@H](c2ccccc2)[C@@H](CO)N1C(=O)Nc1cccc(OC)c1	2	1	1.0
CC=Cc1ccc2n(c1=O)C[C@H]1[C@H](CO)[C@@H](C(=O)N[C@H](C)c3ccccc3)[C@@H]2N1CC1CC1 (mixture of isomers)	2	-1	3.0
CCS(=O)(=O)Nc1ccc2c(c1)C(=O)N(C)[C@H]1CC[C@@H](CC(=O)N3CCN(C)CC3)O[C@@H]1CO2	1	3	-2.6
CC(C)C#Cc1ccc([C@H]2[C@H]3CN(C(=O)c4ccc(F)cc4)CCCCN3[C@H]2CO)cc1	-7	-20	13
Cc1cccc(CN(C)C[C@H]2OCc3cn(nn3)CCCC(=O)N([C@H](C)CO)C[C@@H]2C)c1	-5	-5	-0.1
CCC(=O)N1CC2(C1)[C@H](c1ccccc1)[C@H](CO)N2Cc1ccccc1F	2	4	-2.2
COc1ccc(S(=O)(=O)Nc2ccc3c(c2)CC(=O)N([C@H](C)CO)C[C@H](C)[C@H](CN(C)Cc2ccc(C(=O)Nc4ccccc4N)cc2)O3)cc1	-3	-3	0.4
COCC(=O)N1CCCCN2[C@H](C1)[C@H](c1ccc(-c3cccc(C)c3)cc1)[C@@H]2CO	-5	-3	-2.0
CCc1csc(N2[C@@H](C#N)[C@@H](c3ccc(C4=CCCC4)cc3)[C@@H]2CO)n1	-3	-3	0.5
CC(C)C#Cc1ccc([C@H]2[C@H]3CN(S(=O)(=O)c4ccccc4)CC(=O)N3[C@H]2CO)cc1	-6	-3	-2.3

An excerpt taken from the entries so far:
SMILES	DUX4 txn inh	DUX4 txn inh difference	DUX4 txn inh control
COCC(=O)N1CCCCN2[C@H](C1)[C@H](c1ccc(-c3cccc(C)c3)cc1)[C@@H]2CO	-5	-3	-2.0
CCc1csc(N2[C@@H](C#N)[C@@H](c3ccc(C4=CCCC4)cc3)[C@@H]2CO)n1	-3	-3	0.5
CC(C)C#Cc1ccc([C@H]2[C@H]3CN(S(=O)(=O)c4ccccc4)CC(=O)N3[C@H]2CO)cc1	-6	-3	-2.3

Reformatted with the structure last: part of the list above
DUX4 txn inh,DUX4 txn inh difference,DUX4 txn inh control,compound
1,3,-2.6,CCS(=O)(=O)Nc1ccc2c(c1)C(=O)N(C)[C@H]1CC[C@@H](CC(=O)N3CCN(C)CC3)O[C@@H]1CO2
-20*,-37*,17*,C[C@H](CO)N1C[C@H](C)[C@@H](CN(C)Cc2ccc(C(=O)Nc3ccccc3N)cc2)OCc2cnnn2CCCC1=O

(further entries)
SMILES	DUX4 txn inh	DUX4 txn inh difference	DUX4 txn inh control
COc1ccc2c3c(n(C)c2c1)[C@H](CO)NCC31CN(C(=O)CC2CC2)C1	5	-2	6.6
C[C@H](CO)N1C[C@H](C)[C@@H](CN(C)C(=O)Nc2ccc(F)cc2)OCc2cn(nn2)CCCC1=O	3	-2	5.1
C[C@H](CO)N1C[C@H](C)[C@@H](CN(C)C(=O)Nc2ccccc2C(F)(F)F)OCc2ccccc2-c2c(n(C)c3ccccc23)C1=O	-6	2	-7.9
CC(C)NC(=O)N(C)C[C@@H]1Oc2ccc(NC(=O)Cc3ccccc3)cc2CC(=O)N([C@H](C)CO)C[C@H]1C	-2	-1	-0.8
CS(=O)(=O)Nc1ccc2c(c1)[C@H]1C[C@H](CC(=O)NCc3ccccn3)O[C@@H](CO)[C@H]1O2	0	4	-3.6
C/C=C/c1ccc([C@H]2[C@@H](CO)N(CC3CCCC3)[C@@H]2CNC(=O)NC(C)C)cc1	2	0	2.6
CN1CCCCN2[C@H](CO)[C@@H](c3ccc(-c4cccnc4)cc3)[C@H]2C1	27	36	-8.6
COc1ccc(NC(=O)N2CCCCN3[C@H](CO)[C@@H](c4ccc(C5=CCCCC5)cc4)[C@H]3C2)cc1	?	.	.
O=C(c1ccccc1)N1CC2(C1)[C@@H](c1ccccc1)[C@@H](CO)N2Cc1ccccn1	-4	2	-5.5
O=C(NC1CCCC1)[C@H]1[C@H](CO)[C@H]2Cn3c(cccc3=O)[C@@H]1N2Cc1cc(F)ccc1F	1	7	-5.2
O=C(C[C@H]1CC[C@H](NC(=O)C2CCOCC2)[C@H](CO)O1)Nc1nccs1	4	3	1.1
C[C@@H]1CN([C@@H](C)CO)C(=O)c2ccccc2-c2ccccc2CO[C@@H]1CN(C)C(=O)Nc1cccc(Cl)c1Cl	?	.	.
C(=C\c1ccc(C2[C@H]3CNC[C@@H]2N3Cc2cncnc2)cc1)/c1ccccc1 (stereo partly specified)	4	-7	12
C[C@H](CO)N1C[C@H](C)[C@@H](CN(C)C(=O)Nc2cccc(F)c2)OCc2cnnn2CCCC1=O	7	0	6.3
CN(C)C(=O)[C@@H]1[C@@H](CO)[C@@H]2Cn3c(ccc(C4=CCCCC4)c3=O)[C@H]1N2C	4	4	-0.4
O=C(C[C@H]1CC[C@@H]2[C@H](COC[C@H](O)CN2S(=O)(=O)c2ccc(F)cc2)O1)NCc1ccc(Cl)c(Cl)c1	?	.	.
C[C@H]1CN([C@@H](C)CO)C(=O)c2c(c3ccccc3n2C)-c2ccccc2CO[C@H]1CN(C)S(=O)(=O)c1cccc(C#N)c1	?	.	.
CC(=O)N1[C@H](CO)[C@@H]2c3ccccc3N(C(=O)Nc3cc(F)ccc3F)C[C@@H]21	-3	-1	-1.8
CCNC(=O)[C@@H]1[C@@H](CO)[C@@H]2Cn3c(cccc3=O)[C@@H]2N1CC1CCCCC1	3	4	-0.7
CS(=O)(=O)N1CC(=O)N2[C@H](C1)[C@@H](c1ccc(C#Cc3ccccc3)cc1)[C@@H]2CO	?	.	.

Rewritten with each value named: entries from further up
C[C@@H]1CN([C@@H](C)CO)C(=O)c2ccccc2-c2ccccc2CO[C@@H]1CN(C)C(=O)Nc1cccc(Cl)c1Cl
  DUX4 txn inh = ?
  DUX4 txn inh difference = .
  DUX4 txn inh control = .

C(=C\c1ccc(C2[C@H]3CNC[C@@H]2N3Cc2cncnc2)cc1)/c1ccccc1 (stereo partly specified)
  DUX4 txn inh = 4
  DUX4 txn inh difference = -7
  DUX4 txn inh control = 12

More structures.
SMILES	DUX4 txn inh	DUX4 txn inh difference	DUX4 txn inh control
CCCNC(=O)Nc1ccc2c(c1)C(=O)N(C)C[C@@H](OC)[C@@H](C)CN(Cc1cccnc1)[C@H](C)CO2	3	3	0.1
C[C@H]1CN([C@@H](C)CO)C(=O)c2cccc(N(C)C)c2O[C@@H]1CN(C)Cc1ccc2c(c1)OCO2	6	3	2.7
C[C@H](CO)N1C[C@H](C)[C@@H](CN(C)C(=O)NC2CCCCC2)Oc2ccc(N(C)C)cc2CC1=O	0	-5	5.2
COCCNC(=O)C[C@@H]1CC[C@H]2[C@@H](COC[C@H](O)CN2C(=O)Nc2ccccc2OC)O1	4	4	-0.1
C/C=C/c1ccc([C@H]2[C@@H](CO)N[C@@H]2CN(CC)C(=O)c2ccccn2)cc1	10	0	9.3
O=C(Nc1ccccc1)[C@@H]1[C@@H](CO)[C@@H]2Cn3c(cccc3=O)[C@@H]2N1C(=O)C1CCC1	7	9	-1.9
C[C@@H]1CN([C@H](C)CO)C(=O)Cc2cc(NC(=O)CCC(F)(F)F)ccc2O[C@H]1CN(C)S(=O)(=O)c1ccc(Cl)cc1	1	5	-3.7
C[C@@H]1CCCCO[C@@H](CN(C)CC2CCCCC2)[C@H](C)CN([C@H](C)CO)C(=O)c2cc(NC(=O)CCCCCC(=O)Nc3ccccc3N)ccc2O1	1	0	1.0
Cc1noc(C)c1NC(=O)NCC[C@@H]1CC[C@@H](NC(=O)Nc2cccc(Cl)c2)[C@@H](CO)O1	0	-1	0.9
COc1cccc(NC(=O)N2CC(=O)N3[C@H](CO)[C@H](c4ccc(C#CCC5CCCC5)cc4)[C@H]3C2)c1	?	.	.
CCN1[C@H](C(=O)N(C)C)[C@@H](CO)[C@@H]2Cn3c(ccc(C4=CCCC4)c3=O)[C@@H]21	2	5	-2.5

Bioassay records deposited in PubChem by Broad Institute.

The list is partial, so the mix of outcomes need not match the whole.
